# Assay outcomes from PubChem BioAssay.
# Cruzain Triton = qHTS Assay for Promiscuous and Specific Inhibitors of Cruzain (with detergent). Potency, µM, for inactives: max response, negative = inhibition, hits mostly inhibitors. actives 0.43% (n = 200,000). AID 1478, 2009. purified cruzain, Z-FR-AMC fluorescence, 0.01% Triton;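 further: plate controls were neutral wells for no effect and buffer without enzyme for full effect; nearly all actives have a fitted effect of over 40% in size; top concentration of the series not given in the record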
# Target sequence (P25779 123-467 limits assumed): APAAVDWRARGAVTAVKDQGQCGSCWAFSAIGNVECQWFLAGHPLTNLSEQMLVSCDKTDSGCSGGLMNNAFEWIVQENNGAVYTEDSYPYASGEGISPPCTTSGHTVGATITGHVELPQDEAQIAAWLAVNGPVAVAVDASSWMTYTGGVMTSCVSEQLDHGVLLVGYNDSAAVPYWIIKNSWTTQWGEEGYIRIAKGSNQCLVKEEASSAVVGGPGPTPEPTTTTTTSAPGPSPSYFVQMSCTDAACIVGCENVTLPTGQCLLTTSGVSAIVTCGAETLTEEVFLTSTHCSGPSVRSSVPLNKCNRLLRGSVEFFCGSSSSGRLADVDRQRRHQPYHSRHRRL
#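 Detergent-containing arm of a paired screen for aggregation-based inhibition: 0.01% Triton X-100 present. Cruzain at 1.5 nM cleaved 2 uM Z-FR-AMC at pH 5.5 with 5 mM DTT; AMC fluorescence gain over 60 s measured activity.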
# Marburg entry inh = qHTS for inhibitors of binding or entry into cells for Marburg Virus; Marburg virus pseudotyped entry inhibition, cell reporter; control for the full effect not named in the record; about a third of the inactives were read at about 46 µM; Potency, µM (highest dose often 37.8 µM), without a hit: at the top dose activity change, negative = inhibition, most hits filed as inhibitors; actives 1.8% (n = 300,000); AID 540276, 2011; active = well fitted inhibition curve with a large enough effect; inconclusive = small, poorly fitted or top-dose-only effect, or effect the other way; inactive = flat fitted curve, though single readings scatter; tested in HEK293 cells; about a fifth of its hits are not listed in these tables; further: on the % scale 0 is the no-effect control and ±100 the full control effect; luciferase read-out
# RE007 growth inh = qHTS Assay for Inhibitors of the HIV-1 protein Vpr | AID 651644, 2012 | actives 0.21% (n = 360,000) | S. pombe RE007 Vpr strain, BacTiter-Glo ATP luminescence, 24 h; control for the full effect not named in the record | Potency, µM (highest dose often 92.2 µM), inactives show at the highest dose activity change, negative = less growth; active = well fitted falling curve with a large enough effect; inconclusive = small, poorly fitted or top-dose-only effect; inactive = no such curve, though single readings can be large or run the other way;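 further: on the % scale 0 is the no-effect control and ±100 the full control effect; nearly all actives have a fitted effect of over 50% in size; the assay follows cell death caused by Vpr and the record does not say whether a fall means rescue or toxicity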
#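 Fission yeast RE007 carrying one integrated HIV-1 vpr copy, seeded at OD 0.01 in PMG+AL medium with 23 nL pinned compound. Grown 24 h at 30 degrees; viability read by BacTiter-Glo luminescence after 5 min.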
# StopGo reporter = High Throughput Screening for Foot and Mouth Disease Virus Antivirals; human cells with a luciferase reporter of 2A StopGo recoding; control for the full effect not named in the record; actives 1.2% (n = 410,000); Potency, µM (top dose mostly 57.9 µM), inactives show at the highest dose signal change, negative = less light; active = well fitted falling curve with a large enough effect; inconclusive = small, poorly fitted or top-dose-only effect; inactive = no such curve, though single readings can be large or run the other way; tested in HEK293T cells; further: on the % scale 0 is the no-effect control and ±100 the full control effect; nearly all actives have a fitted effect of over 45% in size; luciferase light after 4 h
# NS1 inh = qHTS Assay for Inhibitors of Influenza NS1 Protein Function. actives 0.4% (n = 270,000). Potency, µM (series often up to 46.1 µM), for the others: at the highest dose activity, positive = more growth. S. cerevisiae slowed by influenza A NS1, growth recovery by OD600; active means well fitted rising curve with a large enough effect; inconclusive means small, poorly fitted or top-dose-only effect; inactive means no such curve, though single readings can be large or run the other way; further: nearly all actives have a fitted effect of over 50% in size
#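 In this qHTS, NS1 from influenza A is expressed in budding yeast, where it slows growth. Cells are switched from glucose to 2% galactose medium (pH 6.0, -URA), treated with compound, and growth recovery is read at OD600.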
# Cruzain noTriton = qHTS Assay for Promiscuous and Specific Inhibitors of Cruzain (without detergent); actives 2.3% (n = 200,000); Potency, µM, inactives show max response, negative = inhibition, hits mostly inhibitors; AID 1476, 2009; purified cruzain, Z-FR-AMC fluorescence, no detergent;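 further: plate controls were enzyme without inhibitor for no effect and buffer without enzyme for full effect; nearly all actives have a fitted effect of over 40% in size; top concentration of the series not given in the record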
#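 Detergent-free condition (0.00005% Triton X-100) in acetate buffer pH 5.5 with DTT. 1.5 nM enzyme and compound were pre-mixed 15 min, then 2 uM Z-FR-AMC substrate added; reaction progress from fluorescence change between first and third reads (60 s).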
# SARS PLpro yeast = qHTS of Yeast-based Assay for SARS-CoV PLP. Potency, µM (series often up to 32.9 µM), inactives show top-dose activity, positive = growth rescue. S. cerevisiae expressing SARS-CoV PLpro, growth rescue; control for the full effect not named in the record. actives 0.19% (n = 330,000); active means well fitted rising curve with a large enough effect; inconclusive means small, poorly fitted or top-dose-only effect; inactive means no such curve, though single readings can be large or run the other way; further: 0% is about no effect; nearly all actives have a fitted effect of over 55% in size; growth read by luminescence after 48 h
# LASV entry inh = qHTS for Inhibitors of binding or entry into cells for Lassa Virus. Lassa virus pseudotype entry inhibition, cell reporter; control for the full effect not named in the record. Potency, µM (titrated, usually from 37.9 µM), inactives show at the top dose activity change, negative = inhibition, usual class: inhibitors. actives 1.2% (n = 300,000). AID 540256, 2011; active means well fitted inhibition curve with a large enough effect; inconclusive means small, poorly fitted or top-dose-only effect, or effect the other way; inactive means flat fitted curve, though single readings scatter; tested in HEK293 cells; further: on the % scale 0 is the no-effect control and ±100 the full control effect; nearly all actives have a fitted effect of over 50% in size; luciferase read-out
# The depositor's hits bear a star; ? = inconclusive; / = not tested or not shown; & = joins results of further samples; [ ] = another dose, or the depositor's remark. Unless noted, the call rests on the fitted dose curve; in most records, active means well fitted curve in the direction sought with a large enough effect; inconclusive means small, poorly fitted or top-dose-only effect, or another doubt; inactive means no such curve, though single readings can be large; an effect the other way counts as inactive or inconclusive. Potency means the concentration at half of the fitted maximal effect. Outcome played no part in choosing rows (roughly 4.7% active in at least one column).
SMILES,Cruzain Triton,Marburg entry inh,RE007 growth inh,StopGo reporter,NS1 inh,Cruzain noTriton,SARS PLpro yeast,LASV entry inh
O=C(CN1C(=O)S/C(=C\C=C\c2ccccc2)C1=O)Nc1ccc(O)cc1,-6.4%,?,-19%,14%,8%,-5%,-9%,-30%
Cn1ncc(-c2ccno2)c1C(=O)O,/,2%[46.1 µM],7%,6%,/,/,5%,-3%
COC(=O)c1c(-c2cccc(C)c2)csc1NC(=O)C1CCCO1 (configuration not stated),/,?,-16%,-15%,1%,/,0%,-2%
CS(=O)(=O)N(CC(=O)N1CCN(C(c2ccccc2)c2ccccc2)CC1)C1CCCCC1,0.4%,?,-14%[3.69 µM],?,-1%,?,2%,?
Cc1ccc2nc(Cl)c(/C=N/NC(=O)c3ccccc3O)cc2c1,-8.2%,?,-14%,?,10%,3%,-24%,-8%
Cc1ccc(OCCCC(=O)Nc2ccc3c(c2)OCO3)cc1,0.7%,-9%,-8%,20%,-11%,-5%,4%,-2%
COc1ccc(/C=C/c2ccncc2)c2ccccc12,-3.4%,?,-13%,/,-18%,-1%,/,-17%
CC(=O)Nc1nc(-c2ccc([N+](=O)[O-])cc2)cs1,/,2%,-3%,7%,/,/,-7%,11%
CCC(C)(C)NC(=O)CN(C(=O)c1csnn1)c1ccccc1-c1ccccc1,/,19%[46.1 µM],1%,6%,-10%,/,1%,-2%
CC1=CC2C(C3C=CC2(C)C(=O)C3(C)O)C(C)(O)C1=O (configuration not stated),/,18%,-12%,-6%,/,/,/,-11%
C=CCN1N=C(c2ccc(NC(=O)c3ccccc3)cc2)CSC1=O,/,/,3%,-22%,-1%,/,0%,/
COc1c(C)cc(S(=O)(=O)NCc2ccco2)c(C)c1C,/,-16%[46.1 µM],4%,87%[activator],3%,/,0%,-5%
CS(=O)(=O)N(CC(=O)Nc1c(F)cccc1F)c1ccc(C23CC4CC(CC(C4)C2)C3)cc1,1.8%,?,-12%,?,18%,5%,-2%,-7%
O=C(CCl)NC(Cc1c[nH]c2ccc(OCc3ccccc3)cc12)C(=O)O (configuration not stated),/,/,1%,1%,8%,/,1%,/
Cc1cc(C)cc(NC(=O)CSCc2cc(=O)n3ccsc3n2)c1,/,/,2%,19%,8%,/,-4%,/
O=C(C1=C[C@@H](c2ccccc2)C[C@@H](OCCCCO)O1)N1CCN(Cc2ccc3c(c2)OCO3)CC1,/,/,0%,-19%,-2%,/,0%,/
CC(=NNC(=S)N1CCCCCC1)c1ccccn1,/,?,-66%,-32%,/,/,/,0.32µM*
COc1ccc(-c2cc3nc(-c4ccccc4)cc(C(F)(F)F)n3n2)cc1,-2.9%,-8%[46.1 µM],/,-5%,/,2%,/,?
Cc1cccc(C(=O)N2CCC(=O)N([C@H](COCc3cccc(Cl)c3)Cc3ccccc3)CC2)c1,-0.8%,/,4%,-20%,/,?,/,/
O=C1NC(c2ccc(Br)cc2)Nc2ccccc21 (configuration not stated),/,12%,0%,21%,6%,/,-9%,?
COc1cc(/C=C/C(=O)NC(C)C2CC3CCC2C3)cc(OC)c1OC (configuration not stated),/,-2%[46.1 µM],-15%,-12%,0%,/,-1%,-1%[46.1 µM]
CCOC(=O)c1ccccc1Nc1cn(C(C)=O)c2ccccc12,-4.2%,-2%,-10%,-19%,6%,4%,4%,?
CCOC(=O)N1CCN(C(=O)C(=O)Nc2sc3c(c2C#N)CC(C)(C)OC3)CC1,/,?,-2%,20%,-24%,/,0%,28%[46.1 µM]
COC(c1ccccc1)c1nc2ccccc2[nH]c1=O (configuration not stated),/,-1%,-2%,18%,5%,/,1%,14%
COC(=O)CN1C(=O)C(C)=C(c2ccc(C)cc2)S1(=O)=O,-4.6%,20%,7%,-1%,-1%,-4%,0%,34%[14.3 µM]
COc1cc(C2SCCS2)cc(Br)c1Oc1ncccc1[N+](=O)[O-],/,-11%,6%,?,4%,/,-1%,?
Nc1csnc1C(=O)O,1.8%,27%,9%,-14%,-2%,0%,2%,30%
Cc1cc(C)cc(Nc2cc(C(=O)NC3CCC(C)CC3)c3ccccc3n2)c1 (configuration not stated),-9.0%,?,/,37%[activator],/,-5%,/,0%[46.1 µM]
C=CCNc1nc(Nc2ccc(OC)cc2)nc(OCC)n1,5.9%,-12%,-2%,/,-68%,-5%,-6%,5%
Cc1ccc(OCc2cc(C(=O)N(CCO)Cc3cccs3)no2)cc1C,/,-10%,-12%,53%[activator],-29%,/,-6%,?
COCCCNC(=S)N1CCN(c2nc(-c3ccc(F)cc3)cs2)CC1,/,/,2%,?,-55%,/,11%,/
Cc1nn(-c2ccccc2)c2nc(C3CC3)cc(C(=O)Nc3ccc(F)cc3)c12,-2.2%,/,/,?,/,-14%,/,-10%[46.1 µM]
Cc1ccc(Cn2c(CO)cnc2SCC(=O)NCc2ccccc2Cl)cc1,-1.4%,/,/,-20%,/,-5%,/,11%[46.1 µM]
CCCCNC(=O)C(c1ccc(-c2ccccc2)cc1)N(CCN1CCOCC1)C(=O)CCCCCN1C(=O)NC(c2ccc([N+](=O)[O-])cc2)C(C(=O)OCc2ccccc2)=C1C (configuration not stated),1.2%&0.6%,?,/,/,?,-8%&-16%,1%,0%
COc1ccc(C)cc1S(=O)(=O)NC1CC1,/,11%,6%,48%[activator],12%,/,2%,?
Cn1c(N)c(C(=O)CSc2nnc(-c3cccs3)n2C2CC2)c(=O)[nH]c1=O,/,6%,2%,-14%,/,/,0%,-10%
Cc1cc(C(=O)OCC(=O)N(C)c2ccccc2)ccc1[N+](=O)[O-],/,7%[46.1 µM],-6%,-12%,-5%,/,1%,-4%[46.1 µM]
Cc1ccc(NC(=O)CN(C)C(=O)c2ccc(Br)o2)cc1,/,?,9%,9%,10%,/,0%,-7%[46.1 µM]
CCN(CC)c1ncnc2c1sc1nc(C)cc(C)c12,-2.7%,-17%,-21%,?,-18%,126%,-2%,17%
Cc1cc(C)cc(Oc2nc3c(C)cccn3c(=O)c2/C=C(\C#N)c2nc3ccccc3[nH]2)c1,-0.3%,20%[46.1 µM],/,3%,/,7%,/,5%[46.1 µM]
O=C(OCCN1CCOCC1)C1(c2ccccc2)CCCC1,/,5%[46.1 µM],-8%,-14%,/,/,-1%,8%
COc1ccccc1N1CCN(C2CCCN(C(=O)CN3CCCCC3=O)C2)CC1 (configuration not stated),/,-4%,2%,-17%,-1%,/,2%,-6%
CCOC(=O)c1oc2ccccc2c1CSc1nnnn1-c1ccccc1,-0.1%,2%[46.1 µM],-10%,7%,-2%,-3%,-2%,-16%
C=CCn1c(SCc2c(C)noc2C)nc2sc3c(c2c1=O)CCCCC3,-1.9%,?,-1%,?,9%,-14%,-12%,-25%
O=C1CN(c2ccccc2)C(=O)N1,/,4%&4%[46.1 µM],5%,36%[activator],0%,/,1%,-4%
COc1cccc(OCCOc2ccccc2OC(C)C)c1,-3.2%,2%,-4%,-16%,-12%,19%,3%,-4%
Cc1cc(N(C)C)ccc1N=Nc1ccc(N)cc1,/,?,-18%,0%,/,/,/,?
O=C1c2cccnc2C(=O)N1Cc1cccs1,5.2%,/,13%,-14%,-73%,2%,-4%,/
Cc1ccc(C(C)C)cc1OCCn1cncn1,/,3%,20%,-6%,-10%,/,-1%,-1%
COc1ccc(OCC(=O)Nc2ccccc2-c2ccccc2)cc1,/,?,-7%,-4%,8%,/,-2%,?
CCOC(=O)C(Cc1ccccc1)NC(=O)CCc1nnc2ccc(N3CCOCC3)nn12 (configuration not stated),/,-8%[46.1 µM],-3%,2%,-2%,/,29%,9%[46.1 µM]
Cc1ccc(S(=O)(=O)N2CCN(S(=O)(=O)N3CCOCC3)CC2)cc1C,3.5%,-1%,5%,14%,0%,-26%,10%,15%
O=C(Nc1cccc(C(F)(F)F)c1)Oc1ccc(Cl)c2cccnc12,/,?,-1%,?,-77%,/,-12%,?
COc1ccc(CNC(=O)/C(C#N)=C2\N=C(NC(=O)c3cccs3)c3ccccc32)cc1,-4.9%,0%,-2%,4%,4%,25µM*,2%,4%
CN(C)Cc1cccc([N+](=O)[O-])c1O,/,/,-4%,-14%,11%,/,0%,/
COc1cc(CNCC(O)c2ccccc2)ccc1OCc1ccc(Cl)nc1 (configuration not stated),1.6%,?,11%,-4%,8%,8%,11%,7%

# Following part:
SMILES,Cruzain Triton,Marburg entry inh,RE007 growth inh,StopGo reporter,NS1 inh,Cruzain noTriton,SARS PLpro yeast,LASV entry inh
CCn1c(C)nc2cc(C(=O)NNC(=O)c3ccc(Cl)nc3)ccc21,/,13%[46.1 µM],-14%,33%[activator],/,/,0%,-6%
Cc1ccc(C(=O)N2CCN(c3ccc(C(F)(F)F)cn3)CC2)c(C)c1,-17%,?,-12%,?,-2%,11%,-8%,?
O=S(=O)(NCCc1ccncc1)c1ccccc1,2.6%,-3%,16%,105%[activator],15%,-1%,-8%,?
COCCNC(=O)c1ccccc1NC(=O)Cc1ccccc1[N+](=O)[O-],/,/,8%,14%,-1%,/,0%,/
CCOC(=O)c1cnc(SCC(=O)NNC(=O)c2ccco2)nc1N,/,22%[46.1 µM],91%,2%,1%,/,1%,-1%
O=C(Cc1n[nH]c(=O)c2ccccc12)NCc1ccccn1,6.2%,-5%,1%,0%,-8%,2%,/,15%
COc1cccc(OCC(=O)N(C)Cc2nc(-c3cccc(C)c3)no2)c1,/,9%[46.1 µM],4%,?,-12%,/,-4%,?
CN1CCN(CCCNC(=O)CCN2C(=O)COc3ccccc32)CC1,/,/,7%,-19%,-7%,/,1%,/
O=C(N/N=C/c1ccccc1C(=O)O)c1ccccc1Br,/,5%[46.1 µM],-4%,24%,/,/,-1%,21%
